26S disassembly – blocks ATP-dependent breakdown of the yeast 26S proteasome; anti-FLAG beads, GFP-proteasome disassembly, flow cytometry; inhibition of disassembly, % (no concentration beside the values); hit rate 0.2% among 24,000; AID 751;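 active = above 40%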;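 note: plate controls were ATP control with full disassembly for no effect and ATP-gamma-S intact proteasomes for full effect; higher percent means more bead fluorescence retained so stronger block of disassembly; stock transfer was 100 nL into about 10 µL; wells with too few beads may also be inconclusive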
VCAM-1 rise – enhancers of VCAM-1 display on endothelial cells, cell-based, plate reader, pooled HUVEC, TNFa stimulus (AID 455); HUVEC TNFa-induced VCAM-1 immunofluorescence, plate reader; numbers were filed only for top-ranked candidate wells; augmentation, % at 5 µM; hit rate 0.2% among 10,000;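 active = a compound raising TNF-alpha-driven VCAM-1 surface staining, with its hit status upheld on visual or statistical review; inactive = the rest, including hits rejected on review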;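 note: 0% = TNFa with vehicle and 100% = strongest image-checked hit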
* = called active by the depositor; i = inactive.

| 26S disassembly | VCAM-1 rise | compound |
| --- | --- | --- |
| -1.4 | i | O=C1CCc2cc(OCCCCc3nnnn3C3CCCCC3)ccc2N1 |
| -0.3 | i | OCCOCCN1CCN(C(c2ccccc2)c2ccc(Cl)cc2)CC1 (configuration not stated) |
| -1.4 | i | CCN(CC)CCOC(=O)C(c1ccccc1)c1ccccc1 |
| 0.2 | i | CCOC(=O)Nc1ccc2c(c1)N(C(=O)CCN1CCOCC1)c1ccccc1S2 |
| 0.2 | i | CN1CCC(=C2c3ccccc3CC(=O)c3sccc32)CC1 |
| -1.0 | i | Cc1oncc1C(=O)Nc1ccc(C(F)(F)F)cc1 |
| -0.1 | i | OCC(O)CN1CCN(c2ccccc2)CC1 (configuration not stated) |
| -0.3 | i | CN(C)CCOC(=O)C(c1ccccc1)C1(O)CCCC1 (configuration not stated) |
| -0.8 | i | CCCN(CCC)C(=O)C(CCC(=O)O)NC(=O)c1ccccc1 (configuration not stated) |
| 0.4 | i | CC(=O)O[C@@]12CO[C@@H]1C[C@H](O)[C@@]1(C)C(=O)[C@H](O)C3=C(C)[C@@H](OC(=O)[C@H](O)[C@@H](NC(=O)OC(C)(C)C)c4ccccc4)C[C@](O)([C@@H](OC(=O)c4ccccc4)[C@H]21)C3(C)C |

Pulled by structure from above, 5 records:
| 26S disassembly | VCAM-1 rise | compound |
| --- | --- | --- |
| 0.4 | i | CC(=O)O[C@@]12CO[C@@H]1C[C@H](O)[C@@]1(C)C(=O)[C@H](O)C3=C(C)[C@@H](OC(=O)[C@H](O)[C@@H](NC(=O)OC(C)(C)C)c4ccccc4)C[C@](O)([C@@H](OC(=O)c4ccccc4)[C@H]21)C3(C)C |
| -0.1 | i | OCC(O)CN1CCN(c2ccccc2)CC1 (configuration not stated) |
| 0.2 | i | CN1CCC(=C2c3ccccc3CC(=O)c3sccc32)CC1 |
| 0.2 | i | CCOC(=O)Nc1ccc2c(c1)N(C(=O)CCN1CCOCC1)c1ccccc1S2 |
| -0.3 | i | OCCOCCN1CCN(C(c2ccccc2)c2ccc(Cl)cc2)CC1 (configuration not stated) |

2 of the compounds above, field by field.
CCCN(CCC)C(=O)C(CCC(=O)O)NC(=O)c1ccccc1 (configuration not stated)
  26S disassembly: -0.8
  VCAM-1 rise: i

CC(=O)O[C@@]12CO[C@@H]1C[C@H](O)[C@@]1(C)C(=O)[C@H](O)C3=C(C)[C@@H](OC(=O)[C@H](O)[C@@H](NC(=O)OC(C)(C)C)c4ccccc4)C[C@](O)([C@@H](OC(=O)c4ccccc4)[C@H]21)C3(C)C
  26S disassembly: 0.4
  VCAM-1 rise: i

Source: PubChem (several laboratories)

Not all compounds are listed, so the mix of outcomes need not match the whole.
